Rango-impB inh = prevents formation of the Rango-importin beta complex; Q14974; Rango CFP/YFP FRET sensor + importin beta, 45 min; Potency, µM (top dose mostly 92.2 µM), for inactives: top-dose inhibition of complex formation; hit rate 0.031% among 340,000; active = rising FRET ratio curve, often small or poorly fitted; inconclusive = mostly compound fluorescence or quenching in the first reads; inactive = flat curves in all reads;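 further: potency means the concentration at half of the fitted maximal effect; 0% = DMSO wells and 100% = buffer wells lacking importin beta; nearly all actives have a fitted effect of over 15% in size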
Target sequence (Q14974 whole entry, looked up): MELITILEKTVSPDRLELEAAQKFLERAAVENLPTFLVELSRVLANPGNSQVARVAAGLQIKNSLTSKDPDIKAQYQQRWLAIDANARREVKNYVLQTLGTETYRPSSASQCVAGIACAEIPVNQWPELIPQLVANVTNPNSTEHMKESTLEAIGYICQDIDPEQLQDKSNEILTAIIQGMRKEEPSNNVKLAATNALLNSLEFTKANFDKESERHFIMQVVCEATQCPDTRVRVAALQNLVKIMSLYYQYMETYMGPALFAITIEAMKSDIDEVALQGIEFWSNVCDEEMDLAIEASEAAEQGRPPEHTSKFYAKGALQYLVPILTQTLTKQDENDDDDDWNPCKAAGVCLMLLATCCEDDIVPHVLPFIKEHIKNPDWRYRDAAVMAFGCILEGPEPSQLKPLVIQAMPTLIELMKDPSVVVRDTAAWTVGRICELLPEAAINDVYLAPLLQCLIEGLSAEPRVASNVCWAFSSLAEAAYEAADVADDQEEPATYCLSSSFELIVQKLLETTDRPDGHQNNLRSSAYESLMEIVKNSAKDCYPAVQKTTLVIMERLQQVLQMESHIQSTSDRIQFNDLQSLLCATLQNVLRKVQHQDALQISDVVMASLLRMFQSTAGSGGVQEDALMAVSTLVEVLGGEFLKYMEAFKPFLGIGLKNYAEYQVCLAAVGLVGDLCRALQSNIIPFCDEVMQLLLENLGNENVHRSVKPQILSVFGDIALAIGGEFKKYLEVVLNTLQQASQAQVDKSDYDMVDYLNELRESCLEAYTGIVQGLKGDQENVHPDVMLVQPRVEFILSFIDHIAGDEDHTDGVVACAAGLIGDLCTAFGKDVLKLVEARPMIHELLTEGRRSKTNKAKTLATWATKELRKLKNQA
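Inhibition scored from the CFP 486 nm/YFP 530 nm FRET ratio 45 min after adding 0.125 microM importin beta to 50 nM Rango biosensor preincubated 5 min with compound (room temperature, PBS with DTT, Tween-20, BSA). No-importin wells as positive control.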
GLA inh pH 4.5 = inhibitors of human alpha-galactosidase A at pH 4.5; purified enzyme, 4-MU-alpha-Gal fluorescence, pH 4.5; activity change, negative = inhibition, % at 105 µM; 230,000 tested, under 10 active; AID 1467; inconclusive = small, poorly fitted or top-dose-only inhibition, or a rising curve; inactive = flat fitted curve, though single readings scatter; no compound was filed as active;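 further: 0% = full activity with enzyme and -100% = basal without enzyme; dose as in the result columns while the protocol names 77 µM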
miR-21 reporter = raises the signal of a miR-21 reporter; HeLa miR-21 FLuc reporter, luciferase, 48 h; Potency, µM (titrated, usually from 38.3 µM), without a hit: at the highest dose reporter change, positive = more light; 340,000 tested, under 10 active; AID 2288; active = well fitted rising curve with a large enough effect; inconclusive = small, poorly fitted or top-dose-only effect; inactive = no such curve, though single readings can be large or run the other way;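 further: % of control where 0% means no effect; miR-21 action dims this reporter so a rising signal means less miR-21 action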
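Using DMEM plus 10% FBS, HeLa miR-21-FLuc cells are incubated with test compounds (final up to about 40uM) for 48 hours; firefly luciferase signal is then imaged following reagent-mediated lysis.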
Rango release inh = inhibitors of RanGTP-induced Rango-importin beta complex dissociation; O95149+P62826; Biochemical FRET Rango-importin beta, RanGTP-induced dissociation; Potency, µM (highest dose often 46.1 µM), inactives show top-dose activity change, negative = inhibition; hit rate 0.071% among 340,000; active means falling FRET ratio curve, often poorly fitted, with flat reads before Ran was added; inconclusive means other falling curves, or compound fluorescence or quenching; inactive means flat or rising ratio curve;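 further: potency means the concentration at half of the fitted maximal effect; % of control where 0% means no effect; nearly all actives have a fitted effect of over 45% in size; -100% = wells without RanGTP and RCC1; the record marks most hits as doubtful in a second field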
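FRET read at 45 min, room temperature: inhibitors block the CFP/YFP signal rise when RanGTP (0.6 uM Ran, 2 mM GTP, 0.2 uM RCC1) frees Rango (0.1 uM) from importin beta (0.25 uM). Pre-read after 5 min compound exposure flags interference.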
Starred values were filed as active, the others as inactive; ? = inconclusive; . = not tested or not shown; & = joins results of further samples. The list is partial. The share of hits here may be higher or lower than overall.

SMILES	Rango-impB inh	GLA inh pH 4.5	miR-21 reporter	Rango release inh
COc1ccc(N2C(=O)[C@@H]3[C@H](C2=O)[C@H](C(=O)c2ccc(OC(C)=O)cc2)N2N=CC=C[C@@H]32)cc1	.	-1	-56%	.
CCn1c(C)cc2c(c1=O)C(c1ccc3c(c1)OCO3)C(C#N)=C(N)O2 (configuration not stated)	3.7%	6	-9%	-3%
Cc1nc2ccccn2c1C(=O)N=Nc1c(O)n(CCC(C)C)c2ccccc12	2.9%	-6	-2%	-18%
CN(C)C(=S)Nc1ccc(N2CCOCC2)cc1	-0.6%	-3	-3%	-21%
CCCCN(c1ccccc1)S(=O)(=O)c1ccc2c(c1)CCN2C(=O)CCC(=O)O	-0.4%	4	-3%	0%
O=C(Nc1ccccn1)c1ccc(Cl)c(S(=O)(=O)N2CCc3ccccc32)c1	0.6%	.	.	-6%
O=C(NCC1CCCO1)c1cc2ccccc2[nH]1 (configuration not stated)	0.6%	6	-24%	-7%
CCc1ccc(N(CC)C(=O)Cc2c(C(=O)O)n(C)c3ccccc23)cc1	-4.1%	.	1%	-10%
Cc1cc[n+](CC(=O)c2cccc([N+](=O)[O-])c2)c2ccccc12	-0.4%	.	7%	5%
CSCCC(NC(=O)c1ccccc1)C(=O)N1CC(C)OC(C)C1 (configuration not stated)	-3.1%	.	.	-12%
COc1ccccc1CNC(=O)Cn1cccc1C(=O)c1ccccc1C	-3.5%	.	-53%	-9%
CCOc1cc(N2CCOCC2)c(OCC)cc1NC(=O)c1ccccc1	-1.2%	6	-3%	-9%
CC(C)=CCN1CCN(Cc2cc(CC(C)C)n[nH]2)CC1CCO (configuration not stated)	-1.5%	-3	0%	5%
CCn1cc(C2=NC(CC(C)C)CO2)c2ccccc21 (configuration not stated)	0.4%	-7	-39%	6%
CCN(CC)/C(=N/S(=O)(=O)c1ccc(C)cc1)c1ccccc1	-4.7%	2	-2%	7%
CCOC(=O)c1cc(C#N)c(N2CCN(c3ccc(OC)cc3)CC2)[nH]c1=O	-5.3%	-8	3%	-20%
O=C(CCCOc1ccc(Cl)cc1Cl)NCCc1nnc2ccccn12	3.3%	.	-19%	-9%
O=C(c1ccccc1Cl)N1CCCC(c2nc3c(nnn3Cc3ccccc3)c(=O)[nH]2)C1 (configuration not stated)	0.0%	-17	-14%	-2%
CCCCN(C(=O)c1ccco1)C1CCS(=O)(=O)C1 (configuration not stated)	0.9%	.	.	6%
O=C(NNC(=O)C12CC3CC(CC(O)(C3)C1)C2)c1csc(N2CCOCC2)n1	-0.2%	.	-5%	-8%
O=C(NCCC(=O)N1CCN(c2ccccc2O)CC1)c1ccc(Cl)cc1	-0.8%	.	.	1%
Cc1ccc2c(c1)-c1c(cnn1CC(=O)N(CCC#N)c1ccccc1)CO2	-1.4%	-9	-13%	-8%
Cc1nn(Cc2ccccc2Cl)c(C)c1NC(=O)c1noc(C(C)C)c1[N+](=O)[O-]	-2.4%	.	0%	23%
COc1ccc(C(N)CCc2ccc(C)o2)cc1 (configuration not stated)	3.0%	5	-1%	-2%
COc1cc(OC)cc(C(=O)NC(=S)Nc2ccc(N3CCCC3)cc2)c1	6.5%	-9	-11%	0%
COc1cc(NC(=S)Nc2cccc(Cl)c2Cl)c(OC)cc1Cl	?	8	-10%	-17%
C=C[C@@H]1c2cc(C)ccc2N(S(=O)(=O)c2ccc(C)cc2)[C@H](c2ccc(OC(C)=O)cc2)C1(C#N)C#N	-3.5%	.	.	28%
C#CCOCCOCCOCCNc1nc(N2CCN(C(=O)[C@H](Cc3cc4ccccc4[nH]3)n3cc(C(N)CC(C)C)nn3)CC2)nc(N2CCN(C(=O)[C@H](CCC(=O)O)n3cc(C(N)[C@H](C)CC)nn3)CC2)n1 (some centres not stated)	?	-23	2%	7%
CCCN(CCC)C(=O)c1ccc2c(c1)N(Cc1ccccc1)C(=O)CS2=O (configuration not stated)	0.5%	4	-6%	1%
CCOC(=O)c1c(S(=O)(=O)N2CCCCCC2)c(C)n(C)c1C	-3.9%	.	-1%	3%
O=C(Nc1ccc(Cl)cn1)C1CCCN1S(=O)(=O)c1cccc2ccccc12 (configuration not stated)	2.7%	0	10%	-2%
O=c1[nH]c(SCc2n[nH]c(=S)n2-c2ccccc2)nc2ccccc12	3.2%	0	-13%	0%
CCOC(=O)c1ccccc1NC(=O)COC(=O)CCNS(=O)(=O)c1ccc(C)c(C)c1	-1.4%	.	.	-5%
Cc1c(C(=O)O)oc2c1C(O)CC(C)(C)C2 (configuration not stated)	-1.2%&4.9%	-1&-5	-2%&1%	-2%&-10%
CCN(CC(=O)NCc1ccc(F)cc1)C(=O)c1oc2ccccc2c1C	-2.3%	.	9%	-8%
CCCCS(=O)CC(CS(=O)CCCC)OC(=O)c1ccccc1 (configuration not stated)	-0.3%	6	-1%	3%
Cc1c(C(=O)NCCCN2CCCCC2)oc2ccc3c(c12)C(O)CC1(CCCCC1)O3 (configuration not stated)	5.1%	.	-5%	-4%
CC1CCC(NC(=O)CN2C(=O)C3CCCN3c3ncc(Cl)cc32)CC1 (configuration not stated)	.	-5	-2%	.
C(=N\Nc1nc2ccccc2[nH]1)/C1CCCCC1	0.3%	-7	4%	-3%
CCn1cc(C(=O)NCCCN(CC(C)C)CC(C)C)c(=O)c2cc(S(=O)(=O)N3CCOCC3)ccc21	3.7%	.	-2%	6%
O=C(c1ccccc1)c1ccc(OCCO)cc1	3.4%	7	-45%	2%
O=C(N/C(=C\c1ccccc1)C(=O)N1CCCCC1)c1ccco1	0.5%	.	-1%	-14%
O=C1c2[nH]nc(-c3ccccc3O)c2C(c2cccc(Cl)c2)N1Cc1ccco1 (configuration not stated)	-3.5%	-6	18%	1%
COc1ccc2c(c1)c(C(=O)CN1CCN(c3ccccc3)CC1)c(C)n2C	-1.3%	-6	-5%	1%
CC1CN(S(=O)(=O)c2cn(C)c(=O)n(C)c2=O)CC(C)O1 (configuration not stated)	1.0%	-1	0%	1%
CCCCOC(=O)Cn1c2ccc(OC)cc2c2nc3ccccc3nc21	6.0%	4	1%	9%
Cc1oc(-c2ccccc2F)nc1CS(=O)(=O)CC(=O)NCCCN1CC(C)CC(C)C1 (configuration not stated)	1.3%	.	0%	1%
C=CCn1c(C2CC2)n[nH]c1=S	2.6%	-9	-2%	9%
O=C(NCCC1=CCCCC1)c1cccc(S(=O)(=O)N2CCCCC2)c1	3.1%	.	.	5%
O=C(O)CCN(CCC(=O)O)c1nnc(SCc2ccccc2)s1	3.0%	2	-1%	-1%
NC(=O)C1CCN(CC(=O)Nc2nccs2)CC1	3.0%	.	-1%	-7%
CN(C)C(=O)c1cc(C(=O)c2ccc(C(F)(F)F)cc2F)c[nH]1	?	-23	-13%	29%
Cc1ccc(-c2[nH]ncc2CN2CCN(C(=O)c3cccs3)CC2)cc1C	-1.1%	.	3%	0%
Cc1ccc(S(=O)(=O)NC(=NCC(=O)O)c2ccccc2)cc1	0.0%	-1	-4%	1%
C=CCSc1ncccc1C(=O)NCCc1ccccc1	-0.8%	.	-15%	3%
O=C(Nc1ccnn1C1CCN(C/C=C/c2ccccc2)CC1)c1cccc(F)c1	-2.7%	.	0%	14%
O=C(/C=C/c1ccc(Cl)cc1)NC(=S)Nc1ccc(CN2CCOCC2)cc1	-2.8%	5	-2%	1%
CCc1nc2ccccc2c(C(=O)NCc2ccccc2)c1C	-0.7%	-12	1%	-3%
S=c1[nH]nc(CCCc2n[nH]c(=S)o2)o1	2.1%	-6	2%	18%
CCOc1ccccc1N1C(=O)c2ccc(C(=O)Nc3cccnc3)cc2C1=O	3.7%	7	5%	24%

Profiles from above. Order of values: Rango-impB inh | GLA inh pH 4.5 | miR-21 reporter | Rango release inh
Shown for C=CCn1c(C2CC2)n[nH]c1=S : 2.6% | -9 | -2% | 9%
Shown for NC(=O)C1CCN(CC(=O)Nc2nccs2)CC1 : 3.0% | . | -1% | -7%
Shown for O=C1c2[nH]nc(-c3ccccc3O)c2C(c2cccc(Cl)c2)N1Cc1ccco1 (configuration not stated) : -3.5% | -6 | 18% | 1%
Shown for O=C(NCCC1=CCCCC1)c1cccc(S(=O)(=O)N2CCCCC2)c1 : 3.1% | . | . | 5%
Shown for CCCCOC(=O)Cn1c2ccc(OC)cc2c2nc3ccccc3nc21 : 6.0% | 4 | 1% | 9%

Remaining list, next part.
SMILES	Rango-impB inh	GLA inh pH 4.5	miR-21 reporter	Rango release inh
N#Cc1cccc(C(=O)Nc2ccc(S(=O)(=O)Nc3nccs3)cc2)c1	?	.	.	9.2µM*
COc1ccc(N(C)C(=O)CCC(=O)Nc2ccc3nc(N4CCOCC4)cc(C)c3c2)c(OC)c1	0.4%	4	-10%	44%
Cc1ccc(NC(=O)c2ccccc2OCC(=O)Nc2cccc(Cl)c2C)nc1	.	3	-3%	.
O=C(NCCc1ccc(F)cc1)c1cc(-c2ccncc2)nc2ccccc12	.	-13	-2%	.
CCOC(=O)c1cccc(NC(=O)CSc2nnc(-c3ccncc3)n2CCCOC)c1	7.6%	2	-1%	-3%
CC(=O)c1c(C)[nH]c(C(=O)OC2CCOC2=O)c1C (configuration not stated)	-1.1%	1	-2%	6%
COc1ccc(CC(NC(C)=O)C(=O)NC2CCN(C(=O)c3ccccc3F)CC2)cc1 (configuration not stated)	-0.1%	.	-4%	1%
O=C(NCC1CCCO1)c1ccc(Oc2ccc([N+](=O)[O-])cc2)cc1 (configuration not stated)	0.1%	2	9%	-2%
COC(=O)c1ccc(CNC(=O)C2CCC(=O)N(CCN3CCOCC3)C2)cc1 (configuration not stated)	-3.2%	.	4%	0%
Cc1cccc(NC(=O)CSc2nnc(CNC(=O)c3ccco3)o2)c1	-5.1%	.	-1%	18%
CCn1c(C)c2c(C)nnc(C)c2c1C	1.2%	-4	-7%	1%
O=C1CN(C(=S)NC(=O)c2ccc(-c3ccccc3)cc2)CCN1	1.5%	-4	-52%	-3%
O=C(Oc1ccccc1)c1ccc(COC(=O)c2cnccn2)cc1	2.0%	-5	0%	13%
Cc1ccc(NC(=O)/C(=C/c2cccs2)NC(=O)c2ccco2)c(C)c1	-0.5%	-5	6%	19%
Cc1ccc(CNCc2ccc3c(c2)OCO3)c(C)c1	0.7%	.	-3%	6%
O=C1CN(CC(=O)Nc2ccc(Cl)cc2)CCN1	2.2%	-15	0%	?
CCOC(=O)C1=C(C)NC(C)=C(C(=O)OCC)C1c1ccc([N+](=O)[O-])s1	0.1%	-5	13%	8%
COC(=O)c1ccc(CSc2nnc3ccccn23)o1	0.4%	-4	-4%	-1%
COc1ccc(C2OC(=O)CC2C(=O)NC2CCCC(C)C2C)cc1OC (configuration not stated)	-1.7%	3	0%	34%
O=C(N/N=C/c1ccco1)c1ccc(OCc2ccccc2)cc1	-0.4%	-5	-8%	-15%

Three compounds out of the list above, ordered by their value in Rango-impB inh, falling.
compound | Rango-impB inh | GLA inh pH 4.5 | miR-21 reporter | Rango release inh
CCCCOC(=O)Cn1c2ccc(OC)cc2c2nc3ccccc3nc21 | 6.0% | 4 | 1% | 9%
O=C(O)CCN(CCC(=O)O)c1nnc(SCc2ccccc2)s1 | 3.0% | 2 | -1% | -1%
O=C1CN(CC(=O)Nc2ccc(Cl)cc2)CCN1 | 2.2% | -15 | 0% | ?

Continued:
SMILES	Rango-impB inh	GLA inh pH 4.5	miR-21 reporter	Rango release inh
O=C(CSc1ccc2c(c1)OCCO2)N1CCN(c2ccccc2)CC1	-4.4%	.	.	?
CCOC(=O)c1sc(NC(=O)COc2ccc3c(c2)OCO3)nc1C	0.4%	.	0%	-1%
O=C(NC1CCN(C(=S)Nc2ccc(F)cc2)CC1)C1CCCCC1	6.0%	.	2%	7%
CC(C)CCn1c(SCC(N)=O)nc2c1c(=O)n(C)c(=O)n2C	-0.8%	-3	1%	?
CN1CCN(CC(C)(C)NS(=O)(=O)c2ccc(Cl)cc2)CC1	2.6%	4	-10%	4%
Cc1c(NC(C)c2ccccc2O)c(=O)n(-c2ccccc2)n1C (configuration not stated)	2.8%	-2	1%	-1%
O=C(CCC(=O)Nc1ccccc1)N/N=C/c1ccncc1	0.8%	-12	-27%	-10%
CC(=O)c1csc(-c2ccccc2)n1	2.5%	-22	-15%	-15%
Cc1ccccc1C1=Nn2c(nnc2-c2ccco2)SC1	-1.9%	-1	-14%	-1%

Screening data from PubChem BioAssay.
